Source: PubChem BioAssay (Broad Institute)
Vaccinia inh = Vaccinia orthopox stage-specific inhibition; activity change (mCherry), % (test concentration not listed); AID 1053133; Vaccinia-infected cells, mCherry/Venus stage reporter fluorescence; active compounds read low; some inactives read as strong as hits; 89,000 tested, 0.01% active;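 active = mCherry past -33% and 40 or more points under the early reporter, replicates agreeing; inconclusive = past -33% without that gap or agreement; tested in A549 cells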;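 note: scaled between vehicle wells and reference inhibitor wells; 23 nL library stock went into each well; one replicate is shown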
Vaccinia inh Venus = also measured in Vaccinia inh; calls as there; activity change (Venus), %; measured here: Venus reporter, other viral stage;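 negative = less Venus signal; first of two replicates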
An asterisk follows results filed as active; ? = inconclusive; . = not tested or not shown.

SMILES	Vaccinia inh	Vaccinia inh Venus
CC(=O)N(C)C[C@H]1Oc2ncc(Br)cc2C(=O)N([C@H](C)CO)C[C@@H]1C	20	12
O=C(C[C@H]1CC[C@@H](NS(=O)(=O)c2ccc(F)cc2)[C@@H](CO)O1)N1CCc2ccccc2C1	-3	7
COc1cccc(CN2CC3(C2)CN(S(C)(=O)=O)[C@H](CO)c2[nH]c4cc(OC)ccc4c23)c1	3	-1
COc1ccc(S(=O)(=O)Nc2ccc3c(c2)C(=O)N([C@@H](C)CO)C[C@H](C)[C@@H](CN(C)C(=O)CCCN(C)C)OCCCC[C@H](C)O3)cc1	23	14
COc1ccc(NC(=O)N2CCCCN3[C@H](C2)[C@@H](c2ccc(C#CCC(C)C)cc2)[C@@H]3CO)cc1	?	.
CCS(=O)(=O)Nc1ccc2c(c1)C(=O)N(C)C[C@H](OC)[C@H](C)CN(Cc1ccccn1)[C@@H](C)CO2	1	9
CCCNC(=O)N1C[C@H]2[C@@H](c3ccccc31)[C@H](CO)N2CC1CCCC1	3	15
C[C@@H]1CN([C@@H](C)CO)C(=O)c2cc(NC(=O)Nc3cccc4ccccc34)ccc2O[C@H]1CN(C)Cc1ccc(C(F)(F)F)cc1	?	.
COc1ccc(NC(=O)N(C)C[C@H]2Oc3c(NC(=O)c4ccncc4)cccc3C(=O)N([C@H](C)CO)C[C@H]2C)cc1	25	8
Cc1noc(C)c1S(=O)(=O)Nc1ccc2c(c1)C(=O)N([C@@H](C)CO)C[C@H](C)[C@@H](CN(C)Cc1ccccc1)OCCCC[C@@H](C)O2	-35	-21
C[C@H](CO)N1C[C@H](C)[C@H](CN(C)C(=O)Nc2ccc3c(c2)OCO3)Oc2ccc(NS(=O)(=O)c3cn(C)cn3)cc2C1=O	0	-3
Cc1ccc(S(=O)(=O)Nc2ccc3c(c2)CC(=O)N([C@H](C)CO)C[C@@H](C)[C@@H](CN(C)S(C)(=O)=O)O3)cc1	20	4
CO[C@H]1CC[C@H]2CCOc3c(C#N)cccc3C(=O)N(C)C[C@@H](c3ccccc3)CC(=O)N(C)C[C@@H]1O2	9	6
CCNC(=O)[C@@H]1[C@@H](CO)[C@@H]2Cn3c(ccc(-c4ccccc4F)c3=O)[C@@H]2N1C(C)=O	14	18
C[C@@H]1CCCCO[C@@H](CN(C)C(=O)Nc2ccc(F)cc2)[C@H](C)CN([C@@H](C)CO)C(=O)c2cc(NS(C)(=O)=O)ccc2O1	12	8
Cn1cnc(CCNC(=O)[C@H]2[C@H](CO)[C@H]3Cn4c(cccc4=O)[C@@H]2N3C(=O)Nc2ccccc2)c1	1	-1
COc1ccc(CN(C)C[C@@H]2OCCCC[C@@H](C)Oc3ccc(NC(=O)c4ccccc4)cc3C(=O)N([C@H](C)CO)C[C@@H]2C)cc1	-30	-24
CN1c2ccc(-c3cccc(F)c3)cc2[C@H]2[C@H](CCN2C(=O)c2cccc(F)c2)[C@H]1CO	?	.
COCC#Cc1ccc([C@H]2[C@H](CO)N3C(=O)CN(C(=O)C4CCCC4)C[C@@H]23)cc1	12	9
Cc1noc(C)c1NC(=O)N(C)C[C@@H]1Oc2c(NC(=O)NC(C)C)cccc2C(=O)N([C@H](C)CO)C[C@@H]1C	2	-3
CC=Cc1ccc2n(c1=O)C[C@H]1[C@H](CO)[C@@H](C(=O)N(C)C)[C@@H]2N1C(=O)c1ccccc1 (mixture of isomers)	-2	3
CC(C)CC#Cc1ccc2c(c1)O[C@H](CN(C)C(=O)c1ccccc1F)[C@H](C)CN([C@H](C)CO)S2(=O)=O	?	.
C=CC[C@H](OC(=O)Nc1ccc(SC)cc1)c1ccc(OCCO)cc1	9	1
CCNC(=O)[C@H]1[C@H](CO)[C@H]2Cn3c(ccc(-c4cccnc4)c3=O)[C@H]2N1Cc1ccccc1	12	22
C[C@@H]1CCCCO[C@H](CN(C)C(=O)Nc2ccc3c(c2)OCO3)[C@H](C)CN([C@H](C)CO)C(=O)c2cc(NS(=O)(=O)c3cn(C)cn3)ccc2O1	3	6
CS(=O)(=O)N1[C@@H](C#N)[C@@H](c2ccccc2)[C@@H]1CO	6	14
CCCNC(=O)C[C@@H]1CC[C@@H]2[C@H](COC[C@@H](O)CN2C(=O)CC)O1	2	6
COCCNC(=O)C[C@H]1CC[C@H]2[C@@H](COC[C@H](O)CN2C(=O)c2cc(Cl)cc(Cl)c2)O1	12	10
CCC(=O)N[C@@H]1CC[C@@H](CCNC(=O)Nc2ccc(C(F)(F)F)cc2)O[C@@H]1CO	0	7
COc1ccc(NC(=O)N(C)C[C@@H]2Oc3c(NS(=O)(=O)c4ccc(OC)cc4)cccc3C(=O)N([C@@H](C)CO)C[C@@H]2C)cc1	-1	0
COc1ccccc1NC(=O)N1C[C@H](O)COC[C@H]2O[C@H](CC(=O)NCc3ccccc3)CC[C@@H]21	14	10
O=C(C1CCCCC1)N1CC(=O)N2[C@H](CO)[C@H](c3ccc(C#Cc4cccc(F)c4)cc3)[C@@H]2C1	?	.
COc1ccc(NC(=O)Nc2ccc3c(c2)CC(=O)N([C@@H](C)CO)C[C@@H](C)[C@H](CN(C)C(=O)Nc2ccc4c(c2)OCO4)O3)cc1	21	3
C[C@H](CO)N1C[C@H](C)[C@H](CN(C)Cc2cncnc2)Oc2cc(/C=C/c3ccccc3)ccc2S1(=O)=O	?	.
O=C(C[C@H]1CC[C@H](NC(=O)C2CCOCC2)[C@@H](CO)O1)Nc1nccs1	0	10
Cc1noc(C)c1S(=O)(=O)Nc1ccc2c(c1)C(=O)N([C@H](C)CO)C[C@H](C)[C@H](CN(C)S(=O)(=O)c1ccc(F)cc1)OCCCC[C@H](C)O2	-35	-17
O=S(=O)(c1ccccc1)N1CCCCN2[C@H](C1)[C@H](c1ccc(-c3ccccc3F)cc1)[C@@H]2CO	22	-5
CC=Cc1ccc2n(c1=O)C[C@@H]1[C@@H](CO)[C@H](C(=O)N3CCCCC3)N(C(=O)CC3CC3)[C@H]21 (mixture of isomers)	4	4
C[C@H](CO)N1C[C@H](C)[C@H](CN(C)S(=O)(=O)c2cn(C)cn2)OCCCC[C@H](C)Oc2ccc(NC(=O)Nc3cccc4ccccc34)cc2C1=O	15	10
C[C@H](CO)N1C[C@H](C)[C@@H](CN(C)Cc2ccccc2)Oc2ccc(NC(=O)CCN3CCOCC3)cc2C1=O	1	0
COc1cccc(S(=O)(=O)N2CC3(CN[C@H](CO)c4[nH]c5cc(OC)ccc5c43)C2)c1	8	0
C[C@@H]1CN([C@@H](C)CO)C(=O)c2cccc(NS(=O)(=O)c3cn(C)cn3)c2O[C@H]1CN(C)Cc1ccccc1	6	8
C[C@@H]1CN([C@H](C)CO)C(=O)Cc2cc(NC(=O)Cc3ccccc3)ccc2O[C@@H]1CN(C)C(=O)Nc1ccccc1	22	17
COc1ccc(CN(C)C[C@@H]2Oc3c(NS(=O)(=O)c4ccc(F)cc4)cccc3C(=O)N([C@@H](C)CO)C[C@H]2C)cc1	4	5
C[C@@H]1CN([C@H](C)CO)C(=O)Cc2cc(N(C)C)ccc2O[C@@H]1CN(C)Cc1ccc(-c2ccccc2)cc1	?	.
C[C@H](NC(=O)C[C@H]1C=C[C@@H](NC(=O)C2CC2)[C@H](CO)O1)c1ccccc1	-7	2
CC(C)(C)[S@](=O)N1Cc2cc(C(=O)NCCc3ccncc3)nc(-c3cccc(-c4ccccc4)c3)c2[C@@H]1CCO	-8	1
COc1ccc2c3c([nH]c2c1)[C@H](CO)N(S(=O)(=O)c1cn(C)cn1)CC31CCN(CC2CC2)CC1	-13	-15
CO[C@@H]1CN(C)C(=O)c2cc(NC(=O)c3cc(C)on3)ccc2OC[C@H](C)N(C(=O)C2CC2)C[C@H]1C	-7	-2
COc1ccccc1C#Cc1ccc2c(c1)[C@@H]1[C@@H](CCN1C(C)=O)[C@@H](CO)N2C	-3	2
CO[C@@H]1CN(C)C(=O)c2cc(NC(=O)Nc3ccccc3)ccc2OC[C@@H](C)N(C(C)=O)C[C@@H]1C	10	9
CO[C@@H]1CN(C)C(=O)c2cc(NC(=O)c3cccc(F)c3)ccc2OC[C@@H](C)NC[C@@H]1C	-12	2
COc1ccc(NC(=O)N2C[C@@H](O)COC[C@H]3O[C@@H](CC(=O)N4CCN(C)CC4)CC[C@@H]32)cc1	8	13
COc1ccc(CN(C)C[C@H]2Oc3ccc(NC(=O)Nc4ccccc4)cc3CC(=O)N([C@@H](C)CO)C[C@H]2C)cc1	-31	-17
C[C@H]1CN([C@@H](C)CO)C(=O)c2cc(C3=CCCC3)cnc2O[C@@H]1CN(C)S(C)(=O)=O	26	5
O=C(C1CCOCC1)N1C[C@@H]2[C@H](c3ccccc31)[C@H](CO)N2C(=O)Cc1ccccn1	-4	7
CCC(=O)N[C@H]1CC[C@H](CCNC(=O)Nc2ccc(F)cc2)O[C@H]1CO	12	23
COCC(=O)N[C@@H]1C=C[C@@H](CC(=O)N2CCCCC2)O[C@H]1CO	1	2
CN(C)CC(=O)NC[C@H]1N[C@@H](CO)[C@H]1c1ccc(-c2cccc(C#N)c2)cc1	3	9
Cc1ccc(S(=O)(=O)Nc2ccc3c(c2)C(=O)N([C@H](C)CO)C[C@H](C)[C@@H](CN(C)S(=O)(=O)c2cn(C)cn2)O3)cc1	14	20

7 of these compounds in a different format.
compound | Vaccinia inh | Vaccinia inh Venus
CO[C@@H]1CN(C)C(=O)c2cc(NC(=O)c3cc(C)on3)ccc2OC[C@H](C)N(C(=O)C2CC2)C[C@H]1C | -7 | -2
COc1ccccc1C#Cc1ccc2c(c1)[C@@H]1[C@@H](CCN1C(C)=O)[C@@H](CO)N2C | -3 | 2
CO[C@@H]1CN(C)C(=O)c2cc(NC(=O)Nc3ccccc3)ccc2OC[C@@H](C)N(C(C)=O)C[C@@H]1C | 10 | 9
CO[C@@H]1CN(C)C(=O)c2cc(NC(=O)c3cccc(F)c3)ccc2OC[C@@H](C)NC[C@@H]1C | -12 | 2
COc1ccc(NC(=O)N2C[C@@H](O)COC[C@H]3O[C@@H](CC(=O)N4CCN(C)CC4)CC[C@@H]32)cc1 | 8 | 13
COc1ccc(CN(C)C[C@H]2Oc3ccc(NC(=O)Nc4ccccc4)cc3CC(=O)N([C@@H](C)CO)C[C@H]2C)cc1 | -31 | -17
C[C@H]1CN([C@@H](C)CO)C(=O)c2cc(C3=CCCC3)cnc2O[C@@H]1CN(C)S(C)(=O)=O | 26 | 5

(list continues)
SMILES	Vaccinia inh	Vaccinia inh Venus
COc1cccc(S(=O)(=O)Nc2ccc3c(c2)[C@@H]2C[C@H](CC(=O)O)O[C@H](CO)[C@@H]2O3)c1	-8	-2
COc1cccc(C#Cc2ccc([C@H]3[C@@H](CO)N(C(=O)c4ccccn4)[C@H]3C#N)cc2)c1	-21	-14
C[C@H](CO)N1C[C@H](C)[C@@H](CN(C)Cc2ccc(Cl)c(Cl)c2)Oc2ccc(NC(=O)Cc3cn(C)c4ccccc34)cc2C1=O	-24	-16
O=C(Nc1ccccc1)Nc1ccc2c(c1)[C@H]1C[C@H](CC(=O)N3CCCCC3)O[C@H](CO)[C@H]1O2	8	10
C[C@@H]1CN([C@H](C)CO)C(=O)Cc2cc(NC(=O)NC3CCCCC3)ccc2O[C@@H]1CN(C)S(=O)(=O)c1cn(C)cn1	7	0
C[C@@H]1CN([C@H](C)CO)S(=O)(=O)c2ccc(C#C[C@@H](C)O)cc2O[C@@H]1CN(C)C(=O)Cc1ccccn1	8	4
C/C=C/c1ccc([C@@H]2[C@@H](CO)N(C(=O)C3CCC3)C23CN(S(=O)(=O)CC)C3)cc1	-1	-2
C[C@@H]1CN([C@@H](C)CO)C(=O)c2cccc(NC(=O)c3ccc(-c4nccs4)cc3)c2O[C@H]1CN(C)S(=O)(=O)c1cccs1	1	-5
O=C(NCC[C@H]1CC[C@H](NC(=O)C2CC2)[C@@H](CO)O1)Nc1ccc(Cl)cc1	-2	1
O=C(C[C@@H]1CC[C@@H]2[C@H](COC[C@H](O)CN2C(=O)Nc2cc(Cl)cc(Cl)c2)O1)N1CCCCC1	-16	-16
C[C@@H]1CN([C@H](C)CO)C(=O)c2cc(NC(=O)NC3CCCCC3)ccc2O[C@@H]1CN(C)Cc1ccccc1	-26	-6
O=C(C[C@@H]1CC[C@H]2[C@@H](COC[C@H](O)CN2S(=O)(=O)c2ccc(Cl)cc2)O1)NCc1ccc(Cl)c(Cl)c1	?	.
O=C(C[C@@H]1C[C@H]2c3cc(NS(=O)(=O)c4ccccc4)ccc3O[C@H]2[C@@H](CO)O1)NC1CCCC1	12	5
C[C@H](CO)N1C[C@H](C)[C@H](CN(C)S(=O)(=O)c2ccccc2)OCCCC[C@H](C)Oc2ccc(NS(=O)(=O)c3ccc(Cl)cc3)cc2C1=O	-31	-16
C[C@@H]1CCCCO[C@H](CN(C)C)[C@H](C)CN([C@@H](C)CO)C(=O)c2cc(NC(=O)c3ccccc3)ccc2O1	-1	1
COc1ccc(S(=O)(=O)Nc2ccc3c(c2)C(=O)N([C@@H](C)CO)C[C@@H](C)[C@H](CN(C)S(=O)(=O)c2cccs2)OCCCC[C@@H](C)O3)cc1	?	.

6 entries out of the list, sorted by length of the SMILES, lowest first:
SMILES	Vaccinia inh	Vaccinia inh Venus
O=C(NCC[C@H]1CC[C@H](NC(=O)C2CC2)[C@@H](CO)O1)Nc1ccc(Cl)cc1	-2	1
COc1cccc(C#Cc2ccc([C@H]3[C@@H](CO)N(C(=O)c4ccccn4)[C@H]3C#N)cc2)c1	-21	-14
O=C(C[C@@H]1CC[C@@H]2[C@H](COC[C@H](O)CN2C(=O)Nc2cc(Cl)cc(Cl)c2)O1)N1CCCCC1	-16	-16
O=C(C[C@@H]1CC[C@H]2[C@@H](COC[C@H](O)CN2S(=O)(=O)c2ccc(Cl)cc2)O1)NCc1ccc(Cl)c(Cl)c1	?	.
C[C@H](CO)N1C[C@H](C)[C@@H](CN(C)Cc2ccc(Cl)c(Cl)c2)Oc2ccc(NC(=O)Cc3cn(C)c4ccccc34)cc2C1=O	-24	-16
C[C@H](CO)N1C[C@H](C)[C@H](CN(C)S(=O)(=O)c2ccccc2)OCCCC[C@H](C)Oc2ccc(NS(=O)(=O)c3ccc(Cl)cc3)cc2C1=O	-31	-16

This is a subset. The share of hits here may be higher or lower than overall.
